# gsp ag – activates gsp, the McCune-Albright syndrome mutation; actives 0.13% (n = 340,000); gsp mutant cells, cAMP HTRF, 30 min; control for the full effect not named in the record; Potency, µM (titrated, usually from 76.9 µM), inactives show at the top dose activation (cAMP increase), actives largely listed as activators; active = well fitted activation curve with a large enough effect; inconclusive = small, poorly fitted or top-dose-only effect, or another doubt; inactive = no such curve, though single readings can be large or run the other way; cell line not stated here;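 further: phosphodiesterase inhibitor Ro 20-1724 added with compounds to block cAMP breakdown; potency means the concentration at half of the fitted maximal effect; nearly all actives have a fitted effect of over 60% in size; about a fifth of the inactives were tested at one dose only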
#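 Cells in DMEM/10% FBS with G418 were pretreated with compounds in DMSO plus […] (300 uM stock) for 30 min at 37C. cAMP was measured by HTRF (cAMP-d2 plus anti-cAMP antibody-K) after 30 min at room temperature.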
# Menin-MLL FL inh – inhibitors of human menin-MLL interaction, wild-type MLL peptide; 290,000 tested, under 10 active; Fluorescence polarization, fluorescein-MLL peptide displacement from menin; FP activity change, % at 61.4 µM; inconclusive = falling polarisation curve, or a change in total fluorescence; inactive = total fluorescence flat and polarisation flat or rising; no compound was filed as active; the % refers to the polarisation; negative = inhibition;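 further: % of control where 0% means no effect; inhibitors lower the polarisation; unlabelled MLL peptide was the positive control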
# Sfp PPTase inh – blocks B. subtilis Sfp PPTase activity; Q9F4F7; Biochemical Sfp PPTase activity, qHTS; Potency, µM, for inactives: max response, negative = inhibition, most hits filed as inhibitors; actives 3.5% (n = 310,000); active means well fitted inhibition curve with a large enough effect; inconclusive means small, poorly fitted or top-dose-only effect, or another doubt; inactive means no such curve, though single readings can be large or run the other way;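 further: the enzyme is Sfp with the accession as filed and its product quenches rhodamine fluorescence; potency means the concentration at half of the fitted maximal effect; 0% = enzyme reaction without inhibitor and -100% = no enzyme wells; top concentration of the series not given in the record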
#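 Buffer: 50 mM Hepes-Na pH 7.6, 10 mM MgCl2, 0.01% Nonidet P-40, 0.01% BSA. Enzyme 15 nM, pre-exposed to compound 15 min; substrates then added and fluorescence change tracked over 30 min.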
# gsp antag – antagonists of gsp mutant (McCune-Albright syndrome); actives 0.4% (n = 340,000); gsp-mutant cells, cAMP HTRF, 30 min; control for the full effect not named in the record; AID 624288; Potency, µM (top dose mostly 76.9 µM), without a hit: at the top dose activity change, negative = inhibition, hits mostly inhibitors; active = falling curve of any shape with a large fitted effect; inconclusive = falling curve, mostly with a smaller effect; inactive = flat or rising curve; cell line not stated here;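 further: intracellular cAMP measured with PDE inhibitor Ro 20-1724 present during compound exposure; potency means the concentration at half of the fitted maximal effect; on the % scale 0 is the no-effect control and ±100 the full control effect; nearly all actives have a fitted effect of over 65% in size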
#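 G418-selected cells were plated in DMEM/10% FBS for 16-24 h at 37C, then treated with compounds plus the PDE inhibitor […] (300 uM solution added) for 30 min at 37C. Intracellular cAMP was measured by HTRF after 30 min lysis at room temperature.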
# PINK1 expr mod – changes PINK1 expression; PINK1 immunofluorescence, high-content cytometry, 24 h; Potency, µM (series often up to 76.6 µM), inactives show at the highest dose activation (PINK1 increase), usual class: activators; actives 0.2% (n = 410,000); active = well fitted activation curve with a large enough effect; inconclusive = small, poorly fitted or top-dose-only effect; inactive = flat fitted curve, though single readings scatter; cell line not stated here;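 further: potency means the concentration at half of the fitted maximal effect; % of control where 0% means no effect; nearly all actives have a fitted effect of over 65% in size; a mitochondrial uncoupler was the plate control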
#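 Stable cell line treated 24 h with compounds at 5 concentrations (CCCP controls), then fixed and immunostained for PINK1 plus nuclear and cell stains; PINK1 immunofluorescence quantified by laser-scanning microplate cytometry.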
# D2 agonist – human D2 receptor agonism in beta-arrestin assay. activation, % (concentration not given with the values). P14416. DiscoveRx PathHunter D2 beta-arrestin, luminescence, 90 min; 100% = 57 uM dopamine signal. actives 0.084% (n = 360,000); in the data active = activation above about 40%; inconclusive = about 15% to 40%; inactive = below about 15%; further: compound concentration not given in the record; the text of the record calls up to 30% inactive
# Target sequence (P14416 whole entry, looked up): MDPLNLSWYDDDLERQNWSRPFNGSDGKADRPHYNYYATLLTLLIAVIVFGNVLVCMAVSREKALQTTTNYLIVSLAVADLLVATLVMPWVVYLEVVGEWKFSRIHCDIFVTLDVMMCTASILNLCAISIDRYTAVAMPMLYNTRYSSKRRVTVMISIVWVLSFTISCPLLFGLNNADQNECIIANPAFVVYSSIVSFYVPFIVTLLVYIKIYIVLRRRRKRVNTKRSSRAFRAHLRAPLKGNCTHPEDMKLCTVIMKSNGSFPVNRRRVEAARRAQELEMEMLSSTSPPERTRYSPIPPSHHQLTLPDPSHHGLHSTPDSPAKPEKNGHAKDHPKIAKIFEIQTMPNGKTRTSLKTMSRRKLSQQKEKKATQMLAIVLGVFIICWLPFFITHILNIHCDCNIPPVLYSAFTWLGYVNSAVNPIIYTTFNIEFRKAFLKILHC
#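 Agonist mode: compounds alone added to overnight-plated D2 PathHunter cells for 90 min at 37 C, with 57 uM final dopamine (EC100) defining full response. Beta-arrestin recruitment detected by chemiluminescent reagent, read after 1 h at ambient temperature.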
# ClpP mod – qHTS Assay for Activators of ClpP; purified B. subtilis ClpP, FRET peptide cleavage, 20 min; Potency, µM (highest dose often 57.5 µM), for inactives: at the highest dose activity change, negative = active; actives 1.9% (n = 340,000); active = well fitted falling curve with a large enough effect; inconclusive = small, poorly fitted or top-dose-only effect; inactive = no such curve, though single readings can be large or run the other way; further: potency means the concentration at half of the fitted maximal effect; the source files actives as falling curves though it sought activators and does not explain the sign; nearly all actives have a fitted effect of over 65% in size; many hits overshoot -100%
# Target sequence (P80244 whole entry, looked up): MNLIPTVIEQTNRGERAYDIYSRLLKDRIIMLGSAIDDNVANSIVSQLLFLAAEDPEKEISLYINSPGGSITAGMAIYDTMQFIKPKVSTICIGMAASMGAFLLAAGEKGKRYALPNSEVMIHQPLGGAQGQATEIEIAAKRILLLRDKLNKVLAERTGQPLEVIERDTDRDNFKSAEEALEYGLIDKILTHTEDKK
#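 Buffer: 100 mM Tris/HCl pH8, 100 mM KCl, 0.05% low protease BSA, 2.5% glycerol, 0.01% Tween-20. ClpP 10 microg/mL final; 20 min RT; delta FRET normalized to ADEP and DMSO controls.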
# Numbers without * were called inactive; ? = inconclusive; nt = no result given; & = joins results of further samples; [ ] = remark or other dose.
SMILES,gsp ag,Menin-MLL FL inh,Sfp PPTase inh,gsp antag,PINK1 expr mod,D2 agonist,ClpP mod
CCOC(=O)c1ccc(NC(=O)CSc2nnc(Cn3c(=O)sc4ccccc43)n2C)cc1,4.1%,2.0,-7.3%,6.4%,2.4%,-3.6,0.6%
O=C(O)CCn1c(SCc2cc(=O)n3ccccc3n2)nc2ccsc2c1=O,85.6%[15.4 µM],-1.1,-1.6%,nt,0.6%,-0.9,nt
O=C1NC(Cc2c[nH]c3ccccc23)C(=O)N1Cc1cccc2ccccc12 (stereo unspecified),13.7%[15.4 µM],7.9,-0.1%,-3.4%,-0.7%,-1.2,nt
O=C(Nc1ccccc1)N1CCCC2(CCN(C(=O)c3cccc(F)c3)CC2)C1,nt,2.8,4.3%,nt,1.3%,nt,nt
CCCN(CCC)CCNC(=O)C(NS(=O)(=O)c1ccc2c(c1)CCC(=O)N2)c1ccccc1 (stereo unspecified),-28.5%,1.7,20.6%,1.9%,0.1%[38.3 µM],3.9,-1.0%
N#Cc1nc(Cc2ccccc2)oc1NCCN1CCOCC1,-1.0%,1.1,12.9%,3.8%,5.9%[38.3 µM],-0.8,0.3%
CCOC(=O)Nc1sc2c(c1C(=O)OCC)CCC2,-10.2%,3.7,39.8µM*,-0.8%,2.8%[38.3 µM],-1.6,-2.7%
O=C(CSc1nnc(-c2ccc(F)cc2)o1)c1ccc2c(c1)OCCO2,-19.6%,-0.4,-12.8%,12.8%,4.1%[38.3 µM],-4.3,1.0%
Cc1ccc(C)c(NC(=O)CCN2CC(C)CC(C)C2)c1 (stereo unspecified),?,0.6,28.0%,9.7%,0.0%,-0.2,0.1%
CCc1ccccc1NC(=O)CC(O)(C(=O)OC)C(F)(F)F (stereo unspecified),-14.7%,-0.6,18.7%,5.6%,nt,-1.6,0.0%
CCOc1cc(NC(=O)C2CCCO2)c(OCC)cc1NC(=O)C1CC1 (stereo unspecified),1.8%,-1.3,6.6%,-10.1%,3.7%[38.3 µM],0.6,1.2%
CN(CCc1ccccc1)C(=O)CC1C(=O)NCCN1Cc1ccccn1 (stereo unspecified),-23.8%,nt,nt,nt,1.1%,-2.2,-3.2%
Cc1ccc(NC(=O)C2CC(=O)N(C(C)c3ccccc3)C2)cc1 (stereo unspecified),-11.4%,nt,nt,3.0%,1.3%,-3.3,-2.9%
O=C(COc1cccc(F)c1)Nc1nc(-c2cccnc2)cs1,2.7%,nt,nt,-2.2%,-1.1%,-0.4,-3.1%
Cc1ccc(S(=O)(=O)Nc2ccc(C(OC(=O)c3ccccc3[N+](=O)[O-])(C(F)(F)F)C(F)(F)F)cc2)cc1,-30.4%[inhibitor],-1.4,10.7%,-13.1%,?,-4.0,-1.5%
c1ccc2c(Nc3nc(N4CCOCC4)c4ccccc4n3)cccc2c1,4.3%[15.4 µM],-0.9,-17.0%,?,1.8%,-2.4,nt
CCN(CC)c1ccc(C=Nc2cc(C)cc(C)c2)c(O)c1,-24.3%,2.3,-1.7%,-0.1%,-0.3%,-0.2,-1.1%
COc1cc2c(cc1OC)C(c1ccccc1)N(C(=O)c1cccc(S(C)(=O)=O)c1)CC2 (stereo unspecified),-29.5%[15.4 µM],0.6,13.0%,-19.5%,2.7%,-1.8,nt
CC(=O)c1cccc(NS(=O)(=O)c2cc(-c3cnc(C4CC4)o3)ccc2C)c1,4.5%,2.0,-8.0%,8.0%,8.0%&4.8%,1.0,-0.6%&-3.3%
COc1ccc(CNC(=O)COC(=O)C2CC2C)cc1OC (stereo unspecified),-1.2%[15.4 µM],nt,nt,2.7%,1.5%,1.9,1.2%
O=C(/C=C/Nc1ccccc1)c1ccccc1,?,1.5,1.3%,-4.1%,-2.6%,-0.7,-0.5%
O=C(Nc1nnc(SCC(=O)N2CCOCC2)s1)C1CC(=O)N(c2ccccc2)C1 (stereo unspecified),?,3.4,10.0%,8.4%,-1.3%,-4.4,nt
CC1CC(C)CN(c2nc3c(c(=O)n(C)c(=O)n3C)n2CCSc2ncccn2)C1 (stereo unspecified),-16.3%,-0.5,9.6%,-1.6%,-1.7%,0.7,-3.8%
CC(=O)N1CCOc2ccc(S(=O)(=O)N3CCC(C(=O)Nc4cc(C)ccc4C)CC3)cc21,?,1.3,10.1%,-1.4%,0.4%,2.4,-1.1%
CCOC(=O)Nc1cccc(Cl)c1C,-32.6%[inhibitor],-2.2,15.1%,4.2%,4.0%,-2.1,2.4%
Cc1cccc(CN2CCN(c3nc4nonc4nc3NC3CC3)CC2=O)c1,27.3%,-0.2,17.4%,-1.4%,-0.7%,-4.0,nt
CCn1c(SCC(=O)Nc2cc(OC)ccc2OC)nnc1C1CCCCC1,-10.3%,5.4,-12.7%,-14.7%,0.0%[38.3 µM],0.4,-1.0%
Cc1c(C(=O)NCc2ccco2)cccc1[N+](=O)[O-],-1.4%,3.4,31.8%[activator],-13.7%,0.7%,-3.7,3.8%
Cc1ccc(CNC(=O)C2CCN(S(=O)(=O)c3cccs3)CC2)cc1,20.1%[15.4 µM],0.7,5.8%,4.9%,3.9%,-6.6,-1.1%
COc1ccc(C2(CNC(=O)c3ccc(OC)c([N+](=O)[O-])c3)CCOCC2)cc1OC,-60.0%[inhibitor],-1.3,25.1%,-3.2%,0.5%,-3.9,0.2%
COc1cc(OC)cc(-c2nnc(NC(=O)Cc3ccc(F)cc3)o2)c1,?,nt,6.5%,?,0.1%,7.9,-2.0%
COCC(=O)N(C)C1(c2nnnn2CCOC(=O)Nc2ccc(Cl)cc2)CCCC1,-38.2%[inhibitor],-0.7,18.9%,-3.6%,1.3%[38.3 µM],-0.8,0.9%
Cc1ccc(N2C(=O)c3ccccc3C2Nc2ccccc2)nc1 (stereo unspecified),-14.1%,-0.9,-4.9%,-8.1%,0.7%,-3.4,-0.5%
COc1ccc(CNC(=O)CN(C2CCCCC2)S(C)(=O)=O)cc1,-25.6%,3.8,4.1%,5.8%,3.5%,-3.8,0.8%
Cc1nn(-c2ccccc2)c(Cl)c1/C=N/NC(=O)c1ccnn1C,-4.4%,nt,15.9%,0.8%,1.0%,3.8,-0.3%
Cc1cccc(-n2c(CCc3ccccc3)nnc2SCC(=O)c2ccccc2)c1,1.7%[15.4 µM],1.8,50.1µM*,?,9.9%,-6.4,1.3%
O=C(O)CCCC(=O)Nc1ccccc1Br,-5.2%,0.3,3.9%,5.4%,-0.2%,-2.7,0.4%
Cc1ccc(-n2cc(CN3CCN(Cc4nccn4C)CC3)c(-c3ccc(F)cc3)n2)cc1,-34.0%[inhibitor],-1.1,4.1%,-5.0%,0.6%,-2.2,-5.4%
COCCCNc1nc2ccccc2nc1NS(=O)(=O)c1cccs1,-1.8%,0.5,17.1%,-20.2%,0.1%,-1.5,-12.6%
Cn1c(=O)cc(SCC(=O)NCCCN2CCN(c3ccc(F)cc3)CC2)c2ccccc21,?,-4.1,14.2%,-7.9%,-0.2%,2.1,-11.0%
CC(NC(=O)c1ccccc1Br)c1nnc(SCc2ccc([N+](=O)[O-])cc2)n1C (stereo unspecified),24.7%,-2.1,17.2%,-20.5%,4.6%[38.3 µM],-1.6,0.3%
COc1cccc(CNc2ccc(S(=O)(=O)N3CCCC3)cn2)c1,-61.1%[inhibitor],nt,nt,-6.2%,1.8%,13.8,-28.8%
O=C(COc1ccc(C(=O)c2ccccc2)cc1)NCc1ccc(F)cc1,?,1.7,-7.4%,-9.5%,1.6%,1.0,?
CCCCCC(=O)NC(=S)Nc1ccccc1C(=O)OC,14.4%,2.7,7.1%,3.8%,-4.9%,-2.6,11.2%
CC1CCN(c2ccccc2NC(=O)c2cc([N+](=O)[O-])ccc2N2CCOCC2)CC1,-8.1%,-4.3,-5.2%,-16.2%,3.6%,-7.0,-2.7%
Cc1ccc2[nH]c(=O)cc(C(=O)OCC(=O)c3ccc(F)cc3)c2c1,8.5%[15.4 µM],-2.5,6.3%,-1.2%,0.9%,-4.1,-1.3%
Cc1cc(=O)n2nc(N3CCCC(C(=O)N4CCN(c5ccccc5)CC4)C3)sc2n1 (stereo unspecified),23.5%,2.6,23.1%,0.7%,1.9%,-0.5,-1.6%
Cc1noc(C)c1NC(=O)Nc1ccc2c(c1)C(=O)N([C@H](C)CO)C[C@H](C)[C@@H](CN(C)S(=O)(=O)c1ccccc1)O2,0.0%,nt,nt,5.1%,0.2%,-1.5,-0.5%
CCc1nc(SCC(=O)Nc2cc(C)on2)n[nH]1,1.8%,-2.8,8.7%,-5.9%[15.4 µM],-0.3%,-3.6,-0.6%
c1cnc2ccc(C(c3nnnn3C3CCCCC3)N3CCCCC3)cc2c1 (stereo unspecified),-4.4%,1.7,1.3%,-17.0%,-0.6%,-2.7,0.2%
O=C(Oc1cccc(C(=S)N2CCCCC2)c1)c1ccccc1,10.8%,2.8,-22.3%,7.9%,-0.4%,-0.2,-1.9%
O=C(c1ccco1)N(Cc1cc2ccccc2[nH]c1=O)CC1CCCO1 (stereo unspecified),-2.0%,2.2,13.7%,-1.4%,-0.9%,-1.8,-6.5%
CN(C)c1nc2c(c(=O)n(C)c(=O)n2C)n1Cc1ccccc1,2.1%,-1.7,23.7%,-0.6%,-0.9%,-2.5,0.6%
CCOc1ccc(Nc2nc(Cl)nc(N3CCN(c4ccc(OC)cc4)CC3)n2)cc1,5.0%,-2.5,3.5%,-2.9%,4.1%,3.3,1.4%
O=C(NCc1ccco1)C(c1ccccc1)N(Cc1ccccc1)C(=O)Cn1nnc2ccccc21 (stereo unspecified),-4.5%,2.5,5.2%,-19.2%,1.8%,-1.3,1.4%
Nc1ccc(Br)cc1C(=O)O,1.2%,0.9,7.6%,7.6%,1.0%,-5.7,-2.1%
Cc1ccccc1-c1nc(S(=O)(=O)c2ccccc2)c(NCCN2CCOCC2)o1,20.2%,nt,nt,nt,-0.5%,-4.3,-4.0%
CCOc1ccc(C2C(C#N)=C(N)Oc3cc(C)n(CCN4CCOCC4)c(=O)c32)cc1OCC (stereo unspecified),21.7%,0.2,13.4%,0.6%,-1.7%,0.5,-2.5%
Cn1nccc1NC(=O)CSCC(=O)O,20.2%[15.4 µM],5.3,0.3%,1.0%,-0.7%,-1.7,nt
CN(C)c1ncc2nc(-c3cc(F)cc(F)c3)c(=O)n(-c3ccccc3)c2n1,nt,?,14.9%,nt,8.5%,nt,nt
Cc1ccc(S(=O)(=O)/N=C(\N)c2ccc(F)cc2)cc1,7.2%,1.2,-3.2%,3.2%,1.1%,-0.6,1.9%

# Compound activity deposited in PubChem BioAssay by National Center for Advancing Translational Sciences (NCATS).
